# Screens (PubChem BioAssay)
# NPR1 antag: antagonists of human natriuretic peptide receptor Npr1 | P16066 | HEK293 hNpr1 GloSensor cGMP, ANP-stimulated luminescence | Potency, µM (series often up to 46.3 µM), without a hit: at the top dose activity change, negative = inhibition, most hits filed as inhibitors | AID 1347048 | 76,000 tested, 1.6% active; active = well fitted inhibition curve with a large enough effect; inconclusive = small, poorly fitted or top-dose-only effect; inactive = no such curve, though single readings can be large or run the other way;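 further: nearly all actives have a fitted effect of over 60% in size; nearly all hits also lower the signal before the agonist is added; a reference antagonist and vehicle were the controls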
# Target sequence (P16066 whole entry, looked up): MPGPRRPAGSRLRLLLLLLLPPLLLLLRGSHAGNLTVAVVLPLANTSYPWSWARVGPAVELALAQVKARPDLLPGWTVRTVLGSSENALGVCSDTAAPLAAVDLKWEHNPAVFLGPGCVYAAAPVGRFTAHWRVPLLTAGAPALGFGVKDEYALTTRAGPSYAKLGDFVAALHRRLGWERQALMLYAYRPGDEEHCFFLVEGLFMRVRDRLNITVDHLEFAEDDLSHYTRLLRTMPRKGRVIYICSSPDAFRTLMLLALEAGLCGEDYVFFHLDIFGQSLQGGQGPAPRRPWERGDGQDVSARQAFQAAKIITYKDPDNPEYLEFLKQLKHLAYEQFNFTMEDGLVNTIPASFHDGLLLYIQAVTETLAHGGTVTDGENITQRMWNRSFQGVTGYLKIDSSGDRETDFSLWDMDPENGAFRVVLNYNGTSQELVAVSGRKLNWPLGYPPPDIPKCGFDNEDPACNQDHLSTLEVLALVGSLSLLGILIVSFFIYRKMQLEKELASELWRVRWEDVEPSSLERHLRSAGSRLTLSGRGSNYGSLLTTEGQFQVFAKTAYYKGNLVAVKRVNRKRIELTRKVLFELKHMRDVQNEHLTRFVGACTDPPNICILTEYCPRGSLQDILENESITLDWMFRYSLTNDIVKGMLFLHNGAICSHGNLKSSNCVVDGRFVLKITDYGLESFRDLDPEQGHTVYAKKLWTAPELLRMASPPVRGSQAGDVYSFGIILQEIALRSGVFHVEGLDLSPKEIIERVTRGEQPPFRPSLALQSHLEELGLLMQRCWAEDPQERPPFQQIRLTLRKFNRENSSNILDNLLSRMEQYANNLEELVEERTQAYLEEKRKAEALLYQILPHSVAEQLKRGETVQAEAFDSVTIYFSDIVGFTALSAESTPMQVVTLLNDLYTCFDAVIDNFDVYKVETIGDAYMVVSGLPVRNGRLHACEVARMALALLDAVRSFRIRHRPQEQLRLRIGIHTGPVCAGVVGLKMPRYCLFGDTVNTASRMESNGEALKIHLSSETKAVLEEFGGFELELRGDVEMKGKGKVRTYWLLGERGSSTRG
#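 Compound pre-incubated 30 min at room temperature on GloSensor-loaded HEK293 cells stably carrying hNpr1 and the pGS-40F cGMP biosensor. Stimulation uses hNppA at 0.1 nM final; luminescence is taken at baseline and 20 min post-agonist.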
# * = called active by the depositor; ? = inconclusive; [ ] = another dose, or the depositor's remark. On the % scale 0 is the no-effect control and ±100 the full control effect; potency means the concentration at half of the fitted maximal effect. Some of the compounds tested (hit frequency here may not be typical).
SMILES,NPR1 antag
c1ccc(CNc2cc3c(cn2)CN(Cc2cccnc2)CCN3)cc1,-13%[70.6 µM]
O=c1c2c(CO)c(-c3ccccc3)nn2ccn1Cc1cc(=O)n2ccccc2n1,2%
COc1ccccc1CCC(=O)N1CCC2(CC1)N(C)C(=O)CS2(=O)=O,-20%
Cc1nc(C)c(C(=O)NC2CCc3nn(CC4CC4)c(=O)n3CC2)s1 (configuration not stated),3%
O=C(CCC[C@H]1NC[C@@H]2C[C@H]1CN(Cc1ccccc1)C2)Nc1ccc(F)cc1F,-1%
CN(CC1CCOC1)S(=O)(=O)c1ccccc1F (configuration not stated),7%
COCC(=O)N1CCC(C(=O)NC(C)c2ccc3c(c2)OCCCO3)CC1 (configuration not stated),9%
COc1ccc(C(=O)N2CCCCCCNC(=O)CC2)c(OC)n1,-1%
COC(=O)c1ccc2c(c1)nc1n2[C@@H](CNCc2ccc3c(c2)OCO3)COC1,?
CC(C)N1C(=O)C2(CCCC2)C1C(=O)NCC1CCCCC1 (configuration not stated),-2%
CO[C@H]1C(=O)N(C(C)C)[C@H]1C1CCN(Cc2cccc(F)c2)CC1,2%
Cc1ccsc1C(=O)N1CCC(O)(c2ccccc2)[C@H](N(C)C)C1 (some centres not stated),6%
CC1CCC2(CC1)NC(=O)N(CC(=O)Nc1ccccc1F)C2=O (configuration not stated),1%
CN(Cc1cccn1C)CC1CC1,0%[70.6 µM]
O=C(C1CC1)N1CCC2(CC1)CCN(Cc1cccs1)c1ccccc1O2,2%
O=C1c2cnc(-c3cccc(C(F)(F)F)c3)nc2OCCN1CC1CC1,?
CN(CCc1ccccn1)[C@@H]1[C@H](O)[C@H](CO)O[C@@H]1CNC(=O)c1ccc(C(F)(F)F)cc1,-5%
CCCOc1nccnc1NC1CCN(S(=O)(=O)CC)CC1,4%
Cc1cccc(NC(=O)N2CCC3(CC2)CC(N(C2CC2)S(C)(=O)=O)CCO3)c1 (configuration not stated),-14%
CC(C)(N)C(=O)NCc1nc(-c2cccc(F)c2)c(-c2ccccn2)[nH]1,0%
Cc1nsc(NC(=O)N2CCC(CO)CC2)n1,0%
CCN(C(=O)Cn1ccn2nc(-c3ccccc3)c(CO)c2c1=O)c1ccccc1,-2%
COc1ccc(C(=O)N[C@@H]2CN(Cc3ccncc3)C[C@H]2CN(C)C)cc1F,-4%
CCOCc1nc(C2CCCN(C(=O)c3ccnn3CC)C2)no1 (configuration not stated),1%
O=C(c1cccs1)N1CCC2(CC1)CN(C1CCC1)CC2CO (configuration not stated),-1%
CC(=O)N1CCCC1C(=O)Nc1ccc(-c2nc3ccccc3o2)cc1 (configuration not stated),1%
CC(C)C(=O)N1CCCN(S(=O)(=O)c2ccccc2)CCC(=O)NCC1,1%
Cc1nn(Cc2ccccc2)c(C)c1[C@@H]1C=C[C@@H](NS(C)(=O)=O)C1,-4%[70.6 µM]
CC(c1nccs1)N(C)C(=O)c1csc2nc(-c3ccccc3Cl)cn12 (configuration not stated),-25%
COCc1nncn1C1CCN(C(=O)c2ccc(F)cc2F)CC1,-1%
CCc1ccc(CNC(=O)C2(c3ccc(NC(C)=O)cc3)CCC2)cc1,0%
CC1CCC2(CC1)OCC(C(=O)N1CCOCC1)N2C(=O)c1ccc(Cl)c(Cl)c1 (configuration not stated),2%
COc1ccccc1Nc1cnc2ccc(-c3ccc(OC)c(OC)c3)nn12,-2%[70.6 µM]
CC(C)NC(=O)N[C@H]1C[C@H]2C(=O)NC[C@@H](CCC(=O)N3CCN(c4ccccc4)CC3)N2C1,3%
CN(C)[C@@H]1[C@@H](NC(=O)Cc2noc3ccccc23)[C@H]2CCO[C@H]21,0%
COc1ccc(-c2cc(N3CCC(NC(=O)c4ccoc4)CC3)n[nH]2)cc1,-4%
CN(C)C[C@@H]1CN(Cc2cccnc2)C[C@H]1NC(=O)c1ccc(C#N)cc1,-3%
COc1ccc(NC(=O)c2ccc3c(c2)OCCN(CCC(F)(F)F)C3)cn1,3%[70.6 µM]
CN(CCC1CCCCO1)C(=O)Cn1ccc2ccccc2c1=O (configuration not stated),2%
C[C@@H]1CN(C(=O)C2(c3ccc(Cl)cc3)CCC2)C[C@]1(C)O,-21%
O=C(Nc1ccccc1)N1Cc2[nH]cnc2C[C@H]1c1nc(-c2ccc3ccccc3c2)no1,0%
CCc1ccc(S(=O)(=O)N2CC(c3nc(Cc4ccccc4)no3)C2)cc1,?
CN1C(=O)CC(C(=O)O)C12CCN(Cc1cc(Cl)ccc1F)CC2 (configuration not stated),-3%
O=C(c1ccc(Cl)cc1)N1CCC2(CC1)N(c1ccccc1)C(=O)CS2(=O)=O,-1%
CNC(=O)[C@@H](Cc1ccccc1)N1CCC[C@H]1C(=O)NC1CCOCC1,2%[70.6 µM]
Cc1cccc(C(=O)N2CC(Oc3cccc(-c4nc(-c5ccccc5)no4)c3)C2)c1,-2%
Cn1ccnc1CN1CCOC[C@H]1c1ncc(-c2cccc(Cl)c2)[nH]1,-5%[70.6 µM]
COCCN1CC(CO)C2(CCN(C(=O)c3ccccc3)CC2)C1 (configuration not stated),7%
Cn1cnc(C(=O)N2CCC(N3C(=O)C(OCC4CC4)C34CCOCC4)CC2)c1 (configuration not stated),2%
CCCNC(=O)N1CCCCCCNC(=O)[C@@H]2CCCC[C@@H]21,-1%
Cc1cccc(CC(=O)N2C[C@@H](CO)[C@H](c3ccncc3)C2)c1,7%
CCNC(=O)N1CCCC1c1noc(CCC(=O)NCc2cc(F)cc(F)c2)n1 (configuration not stated),5%
O=C1NCCN2CC3(CCN(C(=O)CC4CCCC4)CC3)CC12 (configuration not stated),4%
CN1C(=O)CC(C(=O)O)C12CCN(Cc1cn(C)nc1-c1ccccc1)CC2 (configuration not stated),1%
CNC(=O)[C@@H]1C[C@@H](n2cc(CNC(=O)Nc3ccc(C)c(Cl)c3)nn2)CN1,6%
Cc1ccccc1N1CCN(C(=O)c2nnn3c2COC(c2ccc(Cl)cc2)C3)CC1 (configuration not stated),4%
CCCCCC(=O)Nc1nc2c(s1)C[C@@H]1[C@](C)(CO)[C@H](O)CC[C@@]1(C)[C@@H]2CC(=O)NCc1cccnc1,8%
COc1ccc(C(=O)N2CCc3nc(OCC4CC4)ccc3C2)cn1,4%
CCN(CC)C(=O)[C@@H]1C[C@@H](NC(=O)c2ncn[nH]2)CN1Cc1cnc[nH]1,4%
Cc1ccc(-n2cccc2CC(=O)NCc2ccccc2)cc1,2%
# The list goes on:
SMILES,NPR1 antag
O=C(CCc1cc2n(n1)CCCNC2)N1CCCC(c2nnc3ccccn23)C1 (configuration not stated),2%
CN1CCCN(C(=O)C2(Oc3ccc4ncccc4c3)CCNCC2)CC1,-7%
COC[C@H]1CCCN1Cc1nc(C2(O)CCN(Cc3ccccc3C(F)(F)F)CC2)cs1,3%
CC(=O)N1CCCN(C(=O)c2ccc3c(c2)NC(C)(CCCCc2ccccc2)CO3)CC1 (configuration not stated),-21%
Cc1ccccc1C(=O)N1CCN(c2cc(-c3ccccc3)[nH]n2)CC1,-19%
Cc1cnc(C(=O)N[C@@H]2CCC[C@@H]2C(=O)NCc2ccc(Cl)cc2)cn1,5%
CCn1c(C2CCCN(C(C)=O)C2)nn(C)c1=O (configuration not stated),-1%
COc1ccc(NC(=O)N2CC3CN(C)CC(C2)O3)cc1,-2%
OC(c1nc(Nc2cccc(C(F)(F)F)c2)n[nH]1)C1CC1 (configuration not stated),-12%[70.6 µM]
O=C(Nc1cccc(-n2cccn2)c1)C1CCCN(Cc2cccc(F)c2F)C1 (configuration not stated),-14%
COc1ccccc1NC(=O)CN1CC2CC(C1)[C@H]1CCCC(=O)N1C2 (some centres not stated),-2%
CC(=O)N1CCC(NC2(Cc3cc(COc4ccccc4)on3)COC2)CC1,8%[70.6 µM]
O=C(Nc1ccc(F)cc1)[C@@H]1C[C@@H](c2ccc(F)cc2)N([S+](=O)([O-])c2cccnc2)C1,-2%
CNC(=O)[C@@H]1C[C@@H](n2cc(C(C)(C)NC(=O)c3cccc(Cl)c3)nn2)CN1,-2%
COCC(=O)N1C[C@@H](COC)[C@H](c2ccncc2)C1,-16%
COc1ccc(-c2n[nH]c3c2CC(=O)N(Cc2ccccc2F)C3)cc1F,-3%[70.6 µM]
COc1ccc(C2Cn3cnc(-c4nc(-c5ccc(OC(C)C)cc5)no4)c3CO2)cc1 (configuration not stated),3%
Cc1ccc(CN2CCc3nc(C(C)C)nc(-c4ccc(O)cc4)c3CC2)cc1,8%
O=C(c1ccc(NCc2ccncc2)cc1)N1CCCC2(CCNCC2)CC1,-3%
COCCN1C(=O)CCc2cc(NC(=O)c3ccc(Cl)s3)ccc21,-9%
CCOc1ccccc1NC(=O)N1CCCCCCN(C)C(=O)[C@H]2CCC[C@H]21,-8%
O=C(COc1ccc(F)cc1)Nc1cnc(-c2ccccc2)nc1,-1%
CN(Cc1cccc(-c2nn[nH]n2)c1)c1cc(C2CC(N)C2)ncn1 (configuration not stated),3%
Cc1nc2ncccn2c1C(=O)N1CCC(=O)N(CC2CC2)C(C(C)C)C1 (configuration not stated),5%
Cc1ccc(CNC(=O)[C@@]23CCCC[C@H]2N(C)C(=O)CC3)o1,3%
COCCn1c(=O)n([C@H]2CCCN(C(=O)CC3CCCCC3)C2)c2ncccc21,-12%
O=C(Cn1cccc1-c1nc(-c2ccccc2)no1)Nc1cccc(F)c1,-2%
COCCN1CC(CNC(=O)c2cc(Cl)c(C)c(Cl)c2)CC1=O (configuration not stated),4%
CC(=O)N1CCc2sc(C(=O)NC3CCN(Cc4ccccc4)CC3)cc2C1,0%
Cc1cccc(C(=O)N2CC(c3noc(C4CCCN4C)n3)C2)c1 (configuration not stated),12%
COc1ccc(CN2C[C@@H](F)[C@@H](OCc3nc4ccc(C(F)(F)F)cc4[nH]3)C2)cn1,32µM*
O=C(Nc1cccc(-c2ccc(N3CCOCC3)nn2)c1)Nc1ccc2c(c1)CCC2,?
COCCOC1CN(C2CCN(C(=O)c3ccc(C)nc3)CC2)C12CCCCC2 (configuration not stated),1%
Cc1cc2nc3n(c(=O)c2n1CC(=O)NCCC1=CCCCC1)CCC3,-3%
Cc1ccc(-c2noc([C@@H]3Cc4nc[nH]c4CN3Cc3ccc(F)cc3)n2)cc1,?
CC(=O)N(C1CC1)C1CCOC2(CCN(C(=O)COc3ccc(C)cc3)CC2)C1 (configuration not stated),3%
O=C(CCc1ccc(-c2ccc(Cl)cc2)[nH]1)N1CC[C@H](CO)[C@H](O)C1,-15%
COC(=O)c1cc2n(n1)CCN(C(=O)C(C)Oc1ccccc1)C2 (configuration not stated),5%
CC(C)C(=O)N1CCC(O)(c2csc(CN3CCN(C)CC3)n2)CC1,6%[70.6 µM]
COc1ccc(CN(C)Cc2cccs2)cc1OCC(O)CN1CCN(C)CC1 (configuration not stated),7%
O=C1NCCCCCCN(C(=O)c2cccs2)[C@H]2C[C@H](c3nc(-c4cnccn4)no3)C[C@@H]12,7%
CS(=O)(=O)N1C[C@H]2CCN(Cc3c(F)cccc3F)C[C@H]21,1%
Cc1ccccc1C(=O)NC1CCN(c2cc(-c3ccccc3)[nH]n2)C1 (configuration not stated),-1%
CCn1nccc1C(=O)N1CCCC(c2noc(COc3ccccc3F)n2)C1 (configuration not stated),1%
COc1ccccc1-c1cn2c(n1)CO[C@@H](CNC(=O)NCc1ccccc1)C2,-3%[70.6 µM]
COc1cccc(S(=O)(=O)N2CCC([C@H]3[C@@H](OC)C(=O)N3C(C)C)CC2)c1,-15%
COc1ccc(NC(=O)c2ccc3c(c2)OCC(=O)N(Cc2cnn(C)c2)C3)c(F)c1,5%[70.6 µM]
COc1ccc(-c2cnc3n2CC(C(=O)NCCNC(C)=O)CC3)cc1 (configuration not stated),1%
COc1ccc(C(C)C)cc1CN1CCCC(CNC(C)=O)C1 (configuration not stated),3%
CCN(CC)Cc1cnc2c(C(=O)N3CCN(c4ncccn4)CC3)cnn2c1,-2%
COCCNC(=O)[C@@H]1C[C@H](Oc2ccccc2)CN1S(=O)(=O)c1cccs1,-4%
